Screening results: PubChem, Southern Research Institute
Mtb H37Rv = Mycobacterium tuberculosis H37Rv growth inhibition, cell based, confirmatory dose response (AID 1949); most inactive calls were filed without a number and no value below 0 was filed; inhibition, % at 10 µg/mL; hits with a dose series show IC50 in µg/mL; actives 1.6% (n = 100,000);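 active = confirmed in a dose series; inconclusive = about 50% or more but not retested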;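 also: bacteria grown 7 days with compound before Alamar blue readout; 0% = untreated bacteria and 100% = reference antibiotic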
An asterisk follows results filed as active; i = inactive; ? = inconclusive. Some of the compounds tested; count on the stated rates, not on these rows.

SMILES	Mtb H37Rv
Cc1ccc(C(=O)NC(=S)Nc2ccc(N3CCCCC3)c(Cl)c2)c(Cl)c1	i
CCOc1ccc2nc(SCc3ccc4c(c3)OCO4)sc2c1	i
O=C(NC(NC(=S)Nc1cccc2ccccc12)C(Cl)(Cl)Cl)c1ccccc1F (stereo not drawn)	i
CNc1oc(-c2ccc(OC)cc2)nc1C#N	i
C=CCc1cc(Cl)ccc1OCCOCCNCCOC	i
COc1ccc(C)cc1S(=O)(=O)Nc1cccc(Cl)c1C	i
CCC(O)c1ccc(OCc2ccc(C(=O)OC)o2)c(OC)c1 (stereo not drawn)	i
Cc1ccc(S(=O)(=O)N(C)c2ccc(C(=O)NCc3ccccc3Cl)cc2)cc1	i
CC(C)(Oc1ccc(Cl)cc1)C(=O)Nc1ccccc1I	1.0%
O=C(Nc1cccc(C(=O)Nc2nnc(Cc3ccccc3)s2)c1)c1ccccc1	1.3%
O=S(=O)(NCCc1c[nH]c2ccccc12)c1ccc(F)cc1	3.9%
CCc1ccc(C(=O)CSc2nnnn2C)cc1	i
Cc1cc(C=C2C(=O)c3ccccc3C2=O)c(C)n1-c1ccccc1F	11.8%
O=C(Nc1cccc([N+](=O)[O-])c1)c1ccc(CSc2ccc(Cl)cc2)cc1	1.3%
O=C(C1CCN(Cc2cccs2)CC1)N1CCc2ccccc2C1	i
O=C(c1cncc(Br)c1)N1CCN(C(c2ccccc2)c2ccc(Cl)cc2)CC1 (stereo not drawn)	1.0%
O=c1c2cnn(-c3ccccc3)c2nc(-c2ccco2)n1-c1ccccc1	i
COc1ccc(C(=O)O)cc1NC(=S)NC(=O)C(c1ccccc1)c1ccccc1	i
O=C1c2cccc3cccc(c23)C(=O)N1CCN1CCN(CCc2ccccc2)CC1	23.8µg/mL*
CCOC(=O)c1c(C)oc2cc(Br)c(OC(=O)C3CCCCC3)cc12	0.4%
COC(=O)Nc1sc2c(c1C(=O)OC)-c1ccc(OC)cc1CC2	i
Cc1ccc(C)c(OCCCN2CCOCC2)c1C	i
COc1ccc2c(c1)c(=O)oc1c(C)c(OCC(=O)N(C)c3ccccc3)ccc12	i
C1CCC2(CC1)OCC(CN1CCCC1)O2 (stereo not drawn)	i
O=C(Nc1cccc([N+](=O)[O-])c1)Nc1ccc(Cl)c(C(F)(F)F)c1	0.19µg/mL*
COc1ccc(Cl)cc1C(=O)NCc1ccc2c(c1)OCO2	i
CCSCc1nnc(SCC(=O)Nc2nc3ccccc3s2)n1C	i
c1ccc(-n2c(SCc3nc4ccccc4s3)nnc2-c2ccncc2)cc1	i
CCOC(=O)N1CCN(C(=O)c2ccccc2N(C)S(C)(=O)=O)CC1	i
COC(=O)c1sccc1NC(=O)Nc1ccc(OC)c(OC)c1	i
Cc1ccc(-c2ccc(C(=O)Nc3ccccc3C(C)C)o2)cc1Cl	i
COc1cc(C(=O)Nc2ccc(I)cc2)cc(Cl)c1OC	3.5%
CCOC(=O)CCc1c(C)c2cc(Cl)c(OC/C=C/c3ccccc3)cc2oc1=O	i
O=C(Nc1cccc(Cl)c1)Nc1cc(C(F)(F)F)ccc1N1CCOCC1	i
C=C(C)COc1ccc2c(C(F)(F)F)cc(=O)oc2c1	i
O=C(Nc1cc(C(F)(F)F)ccc1OC1CCCCC1)c1ccc(F)cc1	4.4%
Cc1cccc(OCCNc2cc(N3CCN(Cc4ccccc4)CC3)ccc2[N+](=O)[O-])c1	21.8%
CCOC(=O)C1=C(C)NC(=O)NC1c1cccc(OC2CCCC2)c1 (stereo not drawn)	i
COc1ccc(NC(=O)c2cnn3c2NC(c2cccs2)CC3C(F)(F)F)cc1OC (stereo not drawn)	0.1%
OCc1nc2ccccc2n1CCOc1cccc(Cl)c1	4.3%
O=C(NC(=S)Nc1nc2c(Cl)cccc2s1)c1cccs1	i
CCCCOc1cccc(C(=O)NC(=S)Nc2ccccc2CC)c1	i
N#C/C(=C/c1ccc2c(c1)OCCO2)c1cccc([N+](=O)[O-])c1	i
CCCCOc1ccccc1NC(=O)c1ccccc1OC	25.4%
COc1ccc(-c2cc(-c3ccccc3)nc3n[nH]c(N)c23)cc1	?
COc1ccc(Br)cc1S(=O)(=O)Oc1cc(C)cc(C)c1	i
CC(C)Oc1ccccc1NC(=O)CSc1nc2ccccc2c(=O)n1C	i
CC1CCN(c2ccc(C(=O)N3CCCCC3)cc2[N+](=O)[O-])CC1	3.7%
COc1ccc(C(=O)COc2cc(C)cc3oc(=O)c4c(c23)CCC4)cc1	i
C#CCOc1c(Br)cc(C=O)cc1OC	i
CCOc1ccc(C(=O)Nc2ccccc2CC)cc1[N+](=O)[O-]	2.0%
COc1ccccc1CC(=O)NC1CCCC1	i
OCC1CCCCN1C(=S)Nc1ccc(Cl)cc1Cl (stereo not drawn)	i
O=C(NCc1ccccc1)C(Cc1ccccc1)N1C(=O)C2C3CCC(C3)C2C1=O (stereo not drawn)	i
O=C(Nc1ccc(-c2nnc(-c3ccccc3)o2)cc1)c1cccc(F)c1	i
O=C(CSCc1ccc(Cl)cc1)N(Cc1ccccc1)Cc1ccccc1	0.1%
Cn1c(=O)c2c(nc(SCC(=O)N3CCOCC3)n2Cc2c(F)cccc2Cl)n(C)c1=O	i
Cc1cc(=O)oc2cc(OC(=O)C(C)(C)C)ccc12	i
CC(=O)Oc1cccc2ccc(/C=C/c3ccc(Cl)cc3)nc12	<0.1µg/mL*
Cc1ccc(N(CC(=O)NCCSC(C)(C)C)S(=O)(=O)c2ccc(Cl)cc2)cc1C	i

Overlap with the part before: 2 entries, followed by the next part.
SMILES	Mtb H37Rv
CC(=O)Oc1cccc2ccc(/C=C/c3ccc(Cl)cc3)nc12	<0.1µg/mL*
Cc1ccc(N(CC(=O)NCCSC(C)(C)C)S(=O)(=O)c2ccc(Cl)cc2)cc1C	i
COc1cccc(-c2nn(-c3ccccc3)cc2CO)c1	?
N/C(=N\OC(=O)c1ccc2ccccc2c1)c1ccc(Cl)cc1	i
Cc1ccc(C(=O)Nc2ccc(N3CCOCC3)cc2N2CCOCC2)cc1	3.5%
O=C(c1ccc(Br)s1)N1CCCC1	i
O=C1NC(c2ccccc2)(c2ccccc2)C(=O)N1CCOCCOc1ccccc1	0.2%
Cc1c(NC(=S)NC(=O)c2ccncc2)c(=O)n(-c2ccccc2)n1C	i
CCC1C(=O)N=C(SCC(=O)NC2CCCCC2)NC1=O (stereo not drawn)	i
O=C(NCCNC(=O)c1cccs1)c1cccs1	i
Cc1[nH]c2ccccc2c1C(=O)COc1ccccc1F	i
Cc1cc(C)nc(NS(=O)(=O)c2ccc(NC(=O)COc3ccc([N+](=O)[O-])cc3)cc2)n1	i
CC1CCN(C(=O)CN(c2ccc(Oc3ccccc3)cc2)S(C)(=O)=O)CC1	i
Cc1cc(NC(=O)CN2CCCCC2)no1	i
O=C(Cn1cnc2ccccc2c1=O)Nc1ccc(F)cc1Cl	i
CCN1CCN(c2ccc(NC(=O)c3cc(-n4cnnc4)ccc3Cl)cc2Cl)CC1	i
Cc1cc(Br)c(NC(=O)CSc2nnc(-c3ccccc3Cl)n2C)cc1C	i
COc1ccc(-c2cc(C)nc3nc(N)nn23)cc1	i
COc1ccc(-c2cc(C(F)F)n3ncc(C(=O)Nc4ccc(F)cc4F)c3n2)cc1	i
c1ccc(COn2nnc3ccccc32)c(COn2nnc3ccccc32)c1	i
CCOC(=O)c1c(NC(=O)Cc2ccccc2)sc(C(=O)Nc2ccccc2F)c1C	15.2%
COc1ccc(S(=O)(=O)Nc2cccc(F)c2)cc1C	i
CC(=O)Nc1ccc(OCC(=O)Nc2c(C)cccc2C)cc1	i
O=C(NCC1OCCc2ccccc21)c1ccc(NC(=O)c2ccc(Cl)cc2Cl)cc1 (stereo not drawn)	i
C=CCn1c(SCC(=O)Nc2ccc3c(c2)OCCO3)nc2sc3c(c2c1=O)CCCCC3	i
CC(C)(C)c1ccc(CSc2n[nH]c(=O)[nH]c2=O)cc1	45.8%
O=C(OCc1ccc(Br)cc1)C(c1ccccc1)c1ccccc1	4.6%
CCOc1cc(/C=C(\C#N)c2nc3ccccc3s2)cc(Br)c1OC(C)=O	i
CCc1nnc(NC(=O)CCn2cnc3ccccc3c2=O)s1	i
COC(=O)Cn1c(=N)n(Cc2ccccc2Cl)c2ccccc21	i
COc1ccc(CC(=O)Nc2cccc(C(C)=O)c2)cc1OC	i
O=C(Nc1ccc(Cl)cc1)OCCn1nnnc1C1(N2CCOCC2)CCCCC1	i
COc1ccc(-c2cc(=O)oc3cc(OC(C)=O)ccc23)cc1	i
Cc1ccc2nc(/C(C#N)=C\c3ccc(N4CCCC4)c(F)c3)[nH]c2c1	1.8%
Cc1cc(Cl)ccc1N(CC(=O)Nc1ccccc1C(C)C)S(C)(=O)=O	1.8%
COCC(C)NC(=O)c1ccc([N+](=O)[O-])cc1Cl (stereo not drawn)	i
COc1ccccc1C(=O)Nn1cnnc1	i
Cc1ccc(-c2nnc(N3CCN(C(=O)CSc4ncn[nH]4)CC3)c3ccccc23)cc1	i
Cc1c(C(=O)NNC(=S)NCc2ccc(Cl)cc2)oc2ccccc12	i
CC(=O)Nc1ccc(C(=O)CSc2nncn2C)cc1	i
COc1ccccc1C(=O)ON1C(=O)c2cccc3cccc(c23)C1=O	i
CN1CCN(c2ccc(NC(=O)c3ccc(Cl)c(Cl)c3)cc2)CC1	i

In a second layout: results already given.
> COc1ccc(-c2cc(C(F)F)n3ncc(C(=O)Nc4ccc(F)cc4F)c3n2)cc1
  Mtb H37Rv: i

> c1ccc(COn2nnc3ccccc32)c(COn2nnc3ccccc32)c1
  Mtb H37Rv: i

> CCOC(=O)c1c(NC(=O)Cc2ccccc2)sc(C(=O)Nc2ccccc2F)c1C
  Mtb H37Rv: 15.2%

> COc1ccc(S(=O)(=O)Nc2cccc(F)c2)cc1C
  Mtb H37Rv: i

Next part
SMILES	Mtb H37Rv
Nc1cc(=O)[nH]c(SCC(=O)Nc2cccc(C(F)(F)F)c2)n1	i
COc1ccc(N(CC(=O)Nc2ccccc2C(=O)NCc2ccco2)S(=O)(=O)c2ccc(F)cc2)cc1	i
N#Cc1cc2c(nc1SCc1ccc([N+](=O)[O-])cc1)CCC2	i
Cc1cccc(-c2nc3c4c5c(sc4ncn3n2)CCCCC5)c1	i
CCc1nc2ccccc2n1Cc1cccc(C)c1	i
Brc1c(OCCN2CCNCC2)ccc2ccccc12	10.6%
CCOC(=O)c1c(CN2CCOCC2)nc2c3ccccc3ccn12	0.7%
CC(C)Cn1c(CCC(=O)O)ccc1-c1cccs1	i
CCS(=O)(=O)N1CCC(N2CCCC2)CC1	i
CCCC(=O)c1ccc(N2CCN(C(=O)c3ccc(F)cc3)CC2)c(F)c1	i
CCCCc1nc2ccccc2c(=O)n1-c1ccc(O)cc1	i
O=C(Nc1ccc(Oc2ccccc2)cc1)C1CC1	29.9%
CS(=O)(=O)N(CC(=O)N1CCOCC1)c1ccc(I)cc1	i
CC(C)CC(=O)Nc1cccc(NC(=O)CC(C)C)n1	i
COc1cc(S(=O)(=O)NCCCn2ccnc2)ccc1Cl	i
O=C(c1c(O)c2ccccc2oc1=O)C1CCCCC1	2.6%
COc1cc(NC(=S)NCCc2c[nH]c3ccccc23)c(OC)cc1Cl	6.9%
Cc1cc(=O)[nH]c(/N=C(\NC(=O)c2ccccc2)Nc2ccc3c(c2)OCCO3)n1	i
CCC(=O)N1CCN(c2ccccc2NC(=O)c2ccc(OCc3ccccc3)cc2)CC1	i
Cc1ccc(F)c(NC(=O)CCc2ccccc2)c1	i

Four entries from above in a different format.
> COc1cc(S(=O)(=O)NCCCn2ccnc2)ccc1Cl
  Mtb H37Rv = i

> O=C(c1c(O)c2ccccc2oc1=O)C1CCCCC1
  Mtb H37Rv = 2.6%

> COc1cc(NC(=S)NCCc2c[nH]c3ccccc23)c(OC)cc1Cl
  Mtb H37Rv = 6.9%

> Cc1cc(=O)[nH]c(/N=C(\NC(=O)c2ccccc2)Nc2ccc3c(c2)OCCO3)n1
  Mtb H37Rv = i

(continued)
SMILES	Mtb H37Rv
O=C(c1cccs1)N1CCC(N2CCCC2)CC1	i
CCc1ccc(NC(=O)CC2Nc3cc(C)c(C)cc3NC2=O)cc1 (stereo not drawn)	1.2%
CCOC(=O)N1CCN(Cc2cc(Cl)c3cccnc3c2O)CC1	?
O=C(CN(c1ccccc1)S(=O)(=O)c1ccc(Cl)cc1)N1CCCC1	i
Fc1ccc(COc2ccc(Cl)cc2CNCC2CCCO2)cc1 (stereo not drawn)	1.9%
CCOC(=O)c1ccc(NC(=O)NC2CCN(C)CC2)cc1	i
CCOC(=O)C1CCN(C(=O)CN(c2cccc(C)c2)S(=O)(=O)c2ccc(C)cc2)CC1	i
CCC1(C(=O)c2ccccc2)C(c2ccc(Cl)cc2)C1(C(=O)OC)C(=O)OC (stereo not drawn)	4.2%
CC(OC(=O)c1ccccc1NC(=O)c1ccccc1)c1ccccc1 (stereo not drawn)	6.6%
CCC(C)c1ccccc1OCC(=O)Nc1ccccc1C#N (stereo not drawn)	1.6%
O=C1CC(N2CCN(c3ncccn3)CC2)C(=O)N1c1ccc(F)c(Cl)c1 (stereo not drawn)	i
CC1(C(=O)O)CC=CCC1C(=O)NCc1ccccc1 (stereo not drawn)	i
CC(=O)Nc1ccc(S(=O)(=O)N2CCN(C3CCC(C)CC3)CC2)cc1 (stereo not drawn)	i
S=C(NCc1ccc(Cl)cc1)Nc1ccc(Nc2ccccc2)cc1	?
CSc1ccc(Cl)c(C(=O)Nc2ccc(C)cn2)c1	i
CC(C)n1c(CCC(=O)O)ccc1-c1ccc(Cl)cc1	i
COc1ccc(NS(=O)(=O)c2ccc(NC(=O)c3ccco3)cc2)cc1	i
CCn1ccc(C(=O)Nc2cccc(C)c2C)n1	i
Cc1cccc(-c2nnc(SCC(=O)Nc3ccc(F)cc3)n2C)c1	i
CCOC(=O)C1CCN(C(=O)COc2ccc(C(C)(C)C)cc2Br)CC1	3.4%
COCc1cc(OC)c(OC)cc1[N+](=O)[O-]	i
Cc1cc(Cl)c(S(=O)(=O)NCCc2ccccc2)cc1OCC(N)=O	i
Cc1cc(C)c(S(=O)(=O)N2CCC(C(=O)Nc3ccc(C(N)=O)cc3)CC2)c(C)c1	i
